Vaccinia mCherry = inhibitors of vaccinia virus infection (mCherry reporter signal); Potency, µM (titrated, usually from 36.5 µM), for the others: at the highest dose activity change, negative = inhibition, actives largely listed as inhibitors; Vaccinia virus mCherry reporter infection, fluorescence; about a quarter of the inactives have no number; 310,000 compounds, 0.63% hits; active = well fitted inhibition curve with a large enough effect; inconclusive = small, poorly fitted or top-dose-only effect; inactive = no such curve, though single readings can be large or run the other way; tested in A549 cells; note: nearly all actives have a fitted effect of over 35% in size; inactives centre near -10
VACV Venus inh = vaccinia inhibition (Venus reporter); 330,000 compounds, 0.46% hits; Vaccinia virus Venus reporter expression, fluorescence; Potency, µM (highest dose often 36.5 µM), without a hit: at the top dose activity change, negative = inhibition, hits mostly inhibitors; active means well fitted inhibition curve with a large enough effect; inconclusive means small, poorly fitted or top-dose-only effect; inactive means no such curve, though single readings can be large or run the other way; tested in A549 cells; note: nearly all actives have a fitted effect of over 30% in size; inactives centre near -10
The depositor's hits bear a star; i = inactive; ? = inconclusive; . = no result given; [ ] = remark or other dose. % is set by controls: 0 for no effect and ±100 for the full control effect; potency is the fitted concentration of half-maximal effect. Not a hit list. Share with any hit: about 0.82%.

Molecule | VACV Venus inh | Vaccinia mCherry
COC(=O)CN1C(=O)N/C(=C/c2ccc(OC)c(C)c2OC)C1=O | 0% | -1%
CCOC(=O)c1cc(-c2ccccc2)n(CCC(=O)Nc2cc(C)cc(C)c2)c1C | -7% | -5%
Clc1cccc(Cl)c1CSc1nnc2ccccn12 | -12% | -8%
Cc1ccc(OC(=O)CSc2nnc(-c3ccc4c(c3)OCO4)o2)c(C)c1 | -10% | -13%
COc1cccc(CN(CC(=O)NC2CCCC2)C(=O)c2csnn2)c1 | -9% | -25%
CC1CCN(c2ccccc2NC(=S)NC(=O)c2ccco2)CC1 | -5% | 0%
Cc1cc(C)c(S(=O)(=O)c2ccccc2C)c(SCC(C)C)n1 | ? | .
Cc1cnc(NC(=O)CSc2nnc(COc3c(C)cccc3C)o2)s1 | -5% | -3%
Cc1ccc(C2CC(=O)Nc3c2c(C)nn3-c2nc(C)cc(C)n2)c(C)c1 (centres undefined) | -3% | -7%
Cc1ccc(NC(=O)CN2c3ccccc3S(=O)(=O)c3ccccc32)cc1F | -7% | -14%
C=CCOC(=O)C1=C[C@@H](c2ccccc2)C[C@@H](OCc2ccc(CO)cc2)O1 | -15% | i
COc1ccccc1C(=O)Nc1ccccc1N1CCOCC1 | -11% | .
O=C(Nc1ccc2c(c1)OCCO2)c1cccnc1 | -8% | -14%
Cc1ccc(/C=N/NC(=O)CC(=O)NCc2cccnc2)cc1 | -9% | -21%
O=C(c1ccc(F)cc1)N1CCC(c2nc3ccccc3o2)CC1 | -1% | 7%
Cc1cc(-c2onc(C)c2C(=O)O)no1 | -11% | -17%
CC(C)Oc1cccc(C(=O)Nc2ccc(CN3CCOCC3)cc2)c1 | -14% | -12%
COc1ccc(Cc2nc3ccc(C(=O)N4CCC(C(N)=O)CC4)cc3o2)cc1 | -4% | i
CCN(CC(=O)NCc1cccs1)C(=O)c1cccc(S(=O)(=O)N2CCc3ccccc32)c1 | -9% | -8%
COC(=O)C(O)(CC(=O)Nc1ccc(Cl)cc1F)C(F)(F)F (centres undefined) | -4% | -10%
CCOc1cc2c(cc1OCC)-n1cccc1C(c1ccc(OC)cc1)NC2 (centres undefined) | -16% | -24%
CCCNC(=O)c1cc(C2CCCCN2S(=O)(=O)c2ccc(C#N)cc2)on1 (centres undefined) | 0% | 28%
Cn1c(=O)c2cc(NC(=S)NC3CCCCC3)ccc2n1-c1ccccc1 | -13% | 28%
COc1ccc(S(=O)(=O)N2CCOCC2)cc1NC(=O)c1ccc(SC)cc1OC | ? | -14%
O=C1CCC[C@@H]2Cc3[nH]c4c(Cl)ccc(Cl)c4c3[C@@H]3CCN1[C@H]23 | -22% | -21%
Oc1ccc(C=NNC(=S)Nc2cccnc2)nc1 | -22% | -26%
CSc1ccc(CNc2nc3ccccc3n3cnnc23)cc1 | -16% | -1%
Cc1cccc(C)c1NC(=O)N1C2CCC1CC(O)(c1cccnc1)C2 (centres undefined) | 4% | -6%
Cc1ccc(NNC(=O)c2cc(C)on2)c(C)c1 | -9% | -3%
CCCn1c(CN2CCN(c3ccc(OC)cc3)CC2)nc2c1c(=O)[nH]c(=O)n2C | 4% | -6%
CN(C)c1ccc(/C=N\NC(=O)c2ccc(Cn3cc(Cl)cn3)cc2)cc1 | -25% | ?
Cn1nc(-c2ccc(S(N)(=O)=O)s2)cc1C(F)(F)F | -5% | -10%
CCCCOc1ccc(C(=O)Nc2nc3c(s2)CC(C)CC3)cc1 (centres undefined) | 0% | -10%
COc1ccc(NC(=O)c2cc3c(=O)n(C)c4ccccc4c3s2)cc1Cl | -1% | 15%
CCc1ccc2cccc3c2c1N=CN3C | -4% | -19%
Cn1c(=O)oc2cc(S(=O)(=O)N3CCCC(C(=O)NCc4ccc5c(c4)OCO5)C3)ccc21 (centres undefined) | -12% | i
CCCS(=O)(=O)NC(=O)C1(C)CCCN(C(=O)c2nc(C)oc2C)C1 (centres undefined) | 5% | 8%
CC(c1ccccc1)n1cnc2ccccc21 (centres undefined) | -12% | -18%
COc1ccc(S(=O)(=O)Nc2cccc(-c3ccc(N4CCCC4)nn3)c2)c(OC)c1 | -28% | -28%
COCCn1nnnc1SCC(=O)c1ccccc1 | 8% | 2%
CC(OC(=O)c1cc(=O)[nH]c2ccccc12)C(=O)N1C(C)CCCC1C (centres undefined) | -4% | -7%
CCCS(=O)(=O)N1CCn2c(nc3ccccc32)C1 | 8% | 30%
NC(=O)C1CCN(C(=O)COc2ccc3c(c2)oc(=O)c2ccccc23)CC1 | 8% | 0%
Cc1cc(C)cc(OCC(=O)NNC(=O)C2CCCO2)c1 (centres undefined) | -14% | i
O=c1[nH]c2cc3c(cc2cc1CN(Cc1ccco1)C(=S)NCCCN1CCOCC1)OCCO3 | -3% | -26%
COc1cccc(C(O)c2nc(-c3ccc(N(C)C)cc3)cs2)c1 (centres undefined) | -11% | i
O=C(O)CN1C(=O)C2(OCCO2)c2cc(Br)ccc21 | -9% | -15%
N#Cc1ccc(-c2ccccc2)nc1SCC(=O)c1cc2ccccc2oc1=O | -7% | -26%
COc1ccc(Br)cc1CN(C)CC(=O)Nc1cc(Cl)cc(Cl)c1 | -9% | -14%
Cc1ccc(-c2cc3c(n2-c2ccc(C)cc2)CC(C)(C)CC3=O)cc1 | 3% | 0%

(list continues)
Molecule | VACV Venus inh | Vaccinia mCherry
CCC(CC)c1nnc(NC(=O)c2cc([N+](=O)[O-])ccc2N2CCCCC2)s1 | 7% | -3%
CCCCOc1ccc(C(=O)Nc2ccc(N3CCN(C(C)=O)CC3)cc2)cc1 | -6% | -17%
COc1ccc(CC(=O)Nc2ccc3nc(N4CCCCC4)cc(C)c3c2)cc1 | -21% | -20%
COc1ccc(S(=O)(=O)N(C(=O)c2ccco2)c2cc3sc(=O)oc3c3ccccc23)cc1 | -10% | i
COc1ccccc1-n1cnnc1SCC(=O)NCc1cccs1 | -7% | .
CSc1ccccc1NC(=O)C1CC(c2ccccc2O)=NO1 (centres undefined) | -17% | -3%
O=C(NCCN1CCCCC1)c1ccco1 | -5% | .
O=C1NC(=S)NC1=Cc1ccc2c(c1)CCC2 | -12% | i
Cc1cc(C(=O)OCC(=O)Nc2cc(S(=O)(=O)N(C)C)ccc2C)c2ccccc2n1 | 1% | 0%
COc1ccc(-c2nn(-c3ccccc3)cc2C(=O)N(C)CC(=O)Nc2ccc(N3CCOCC3)cc2)cc1 | -13% | i
Cc1ccc(NC(=O)C(Cc2ccccc2)N2Cc3ccccc3C2=O)cc1Cl (centres undefined) | -8% | i
COc1ccc(CCNC(=O)C2CC(c3ccc(C(F)(F)F)cc3)=NO2)cc1 (centres undefined) | -28% | -5%
CCCc1sc(N2CCCC(C(N)=O)C2)nc1-c1ccccc1 (centres undefined) | -9% | -16%
COc1ccc(NC(=O)CN2CCN(S(=O)(=O)c3ccc(F)cc3)CC2)cc1Cl | -29% | .
COc1ccccc1CNC(=O)COC(=O)/C=C/c1ccc(OC(F)F)c(OC)c1 | -14% | -1%
COc1ccc(CCNC(=O)CCc2c(C)c3cc4c(C)c(C)oc4cc3oc2=O)cc1 | ? | -7%
Cc1cccc(C(=O)N[C@H](C(=O)NCCc2ccc(Cl)cc2)C(C)C)c1 | 1% | -7%
Cc1cccc(NC(=O)c2cc(-c3ccccn3)nc3ccccc23)c1C | -13% | -18%
COc1cccc(/C(O)=C2/C(=O)C(=O)N(Cc3ccco3)C2c2ccncc2)c1 (centres undefined) | -7% | -14%
CCCCCCCCC#CCC#CCC#CCCCC(=O)O | -14%[3.33 µM] | -2%[3.33 µM]

Rewritten field by field: entries from further up.
COc1ccccc1CNC(=O)COC(=O)/C=C/c1ccc(OC(F)F)c(OC)c1
  VACV Venus inh = -14%	Vaccinia mCherry = -1%

COc1ccc(CCNC(=O)CCc2c(C)c3cc4c(C)c(C)oc4cc3oc2=O)cc1
  VACV Venus inh = ?	Vaccinia mCherry = -7%

Cc1cccc(C(=O)N[C@H](C(=O)NCCc2ccc(Cl)cc2)C(C)C)c1
  VACV Venus inh = 1%	Vaccinia mCherry = -7%

Cc1cccc(NC(=O)c2cc(-c3ccccn3)nc3ccccc23)c1C
  VACV Venus inh = -13%	Vaccinia mCherry = -18%

More records follow:
Molecule | VACV Venus inh | Vaccinia mCherry
Cc1ccc(S(=O)(=O)N(C)c2ccc(C(=O)NCc3ccccc3F)cc2)cc1 | -14% | -8%
Cc1ccc(C)n1CCN1CCN(C(=O)CC#N)CC1 | 4% | 2%
CN(C)S(=O)(=O)c1ccc(C(=O)OCn2nnc3ccccc3c2=O)cc1 | -5% | -14%
CN(C)Cc1ccccc1-c1nc(N(C)Cc2ccco2)c2ccccc2n1 | -21% | -30%
CN(C)c1ccc(/C=C(\NC(=O)c2ccccc2)C(=O)N/N=C/c2ccc(C(=O)O)cc2)cc1 | 0% | -2%
O=C(Nc1ccc(N2CCCC2)cc1)C(Cl)c1ccccc1 (centres undefined) | 1% | -8%
CN(Cc1cnn(C)c1)C(=O)C1CCC(=O)N(Cc2ccc(Cl)cc2)C1 (centres undefined) | -12% | i
Cc1ccc(C(=O)Cn2c(C)cc(C)c(C#N)c2=O)cc1 | -1% | -14%
COc1ccc(OC)c(C(C(=O)NC2CCCCC2)N(C(=O)c2ccccn2)c2cccnc2)c1 (centres undefined) | -3% | 0%
Cn1c(Cc2cccs2)nnc1SCC(=O)Nc1ccc(F)cc1F | -8% | -21%
COc1cc(CC(=O)OCC(=O)Nc2cccc([N+](=O)[O-])c2)cc(OC)c1OC | -2% | -14%
Cc1c(C(=O)OC2CCCC2)[nH]c2c1C(=O)CC(c1ccco1)C2 (centres undefined) | ? | ?
Cc1ccc[n+](CC(=O)Nc2nc3ccccc3s2)c1 | -5% | -15%
C[C@H](CO)N1C[C@H](C)[C@@H](CN(C)C(=O)C2CCCCC2)OCc2cnnn2CCCC1=O | -8% | i
C=CCNC(=O)COc1ccc(S(=O)(=O)NC2CCCCC2)cc1 | -3% | -7%
CCCCOC(=O)c1ccc(NC(=S)NC(=O)c2c(Br)c(C)nn2C)cc1 | 0% | i
Cn1c(CO)cnc1S(=O)(=O)Cc1ccc([N+](=O)[O-])cc1 | -4% | .
COc1cc(O)c(C(CC(=O)N2CCCC(C)C2)c2cc(OC)c(OC)c(OC)c2)c(OC)c1 (centres undefined) | -3% | -10%
COc1ccc2nc(N(Cc3cccnc3)C(=O)c3ccco3)sc2c1 | -17% | -4%
CCOc1ccc(C(=O)Nc2ccc(NC(=O)c3ccccc3)c(C)c2)cc1[N+](=O)[O-] | -1% | i
Cc1ccc(CN2CC(=O)N3[C@H]4c5cc(Cl)ccc5OC[C@@H]4[C@H](c4ccccc4)[C@]3(C)C2=O)cc1 | -19% | -19%
COc1ccc(N2CCN(C(=O)c3cn(CC(C)C)c(=O)c4c3c3ccccc3n4C)CC2)cc1 | -26% | -20%
CCn1c(SCC(=O)Nc2cc(NC(C)=O)ccc2OC)nnc1-c1cccnc1 | 4% | -16%
Cc1ccc(F)c(S(=O)(=O)NC(=O)C2(C)CCN2C(=O)c2cccc3ccccc23)c1 (centres undefined) | -7% | i
Cc1cccc(NC(c2cccc(F)c2)c2ccc3ccc(C)nc3c2O)n1 (centres undefined) | -27% | ?
O=[N+]([O-])c1ccc(N2CCN(C(=S)c3cccc([N+](=O)[O-])c3)CC2)cc1 | -5% | -16%
Cc1ccc(-c2c(NCCc3ccccc3)c(=O)c2=O)cc1 | -13% | -11%
Cc1ccc(-n2ncc3c(SCc4ccccc4)ncnc32)cc1 | -11% | i
Nc1ccc(OCCCc2c(N)nc(N)nc2N)cc1 | -8% | -10%
CCN(CC)S(=O)(=O)c1ccc(N=Cc2c(O)n(-c3ccccc3)c(=O)[nH]c2=O)cc1 | -5% | .

Part of the list above in order of number of heavy atoms, smallest number first:
Molecule | VACV Venus inh | Vaccinia mCherry
Cc1ccc(-c2c(NCCc3ccccc3)c(=O)c2=O)cc1 | -13% | -11%
O=[N+]([O-])c1ccc(N2CCN(C(=S)c3cccc([N+](=O)[O-])c3)CC2)cc1 | -5% | -16%
Cc1ccc(CN2CC(=O)N3[C@H]4c5cc(Cl)ccc5OC[C@@H]4[C@H](c4ccccc4)[C@]3(C)C2=O)cc1 | -19% | -19%

(list continues)
Molecule | VACV Venus inh | Vaccinia mCherry
CNc1nc(-c2ccccc2)nc(-c2ccccc2)c1C#N | -7% | -8%
Cc1ccccc1OCC(=O)Nc1ccc2nc(SCC(=O)N3CCOCC3)sc2c1 | -6% | -3%
CC1(C(=O)NS(=O)(=O)c2ccccc2)CCN1C(=O)CC1CCCCC1 (centres undefined) | 12% | -5%
CC(C)NC(=O)C1(C)CCN1Cc1ccc(-c2ccccc2)cc1 (centres undefined) | -13% | 21%
COc1ccc(N2CC(NC(=O)C3CCCC3)CC2=O)cc1 (centres undefined) | -7%[7.34 µM] | -10%[7.34 µM]
Cc1ccc(/C=N/NC(=O)c2nnn(-c3nonc3N)c2CSc2ccccc2)s1 | -15% | i
CCOC(=O)CNS(=O)(=O)c1c(C)noc1C | -8% | .
COc1cccc(NC(=O)C2Cc3ccccc3CN2C(=O)c2ccco2)c1 (centres undefined) | 4% | -23%
CCOc1ccccc1N1CCN(Cc2cc3c(cc2[N+](=O)[O-])OCO3)CC1 | -4% | i
Cc1ccccc1-n1c(SCC(=O)N(C)C2CCS(=O)(=O)C2)nc2ccccc2c1=O (centres undefined) | -1% | 4%
CC(C)(C)C1CCC(C(=O)OCC(=O)N2CCN(C(=O)c3ccco3)CC2)CC1 (centres undefined) | -8% | i
